Biofilm kill mix = mixtures killing C. albicans biofilm | C. albicans biofilm persisters + clotrimazole, fluorescence viability; primary screen in compound mixtures of four per well | 0.02% of 120,000 active | AID 1242 | inhibition, % at 7.6 µM;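 active = inhibition above 30.3% in the primary screen of four-compound pools, then above 30% when the compound was retested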;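 note: compounds exposed to preformed 24 h biofilms for 48 h; the number belongs to the whole pool; some results filed as inactive read as strong as hits; inactives centre near 12; 0% = biofilm with clotrimazole alone and 100% = kill control; retested singly at about 60 µM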
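Assay system: C. albicans biofilms / Medium: RPMI/MOPS medium, pH 7.0 / Schedule: biofilm formation 24 h, compound exposure 48 h, 37 °C / Measured by: Alamar Blue fluorescence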
* marks the source's active call; other numbers are inactive results. Not all compounds are listed; rates above refer to the full screens.

canonical_smiles	Biofilm kill mix
CCN(CC)S(=O)(=O)c1ccc(N2CCCC2)c(C(=O)OCC(=O)N2CCCC2)c1	13
O=C(Nc1ccc(Cl)cc1C(=O)O)c1ccc2c(c1)C(=O)N(Cc1ccco1)C2=O	15
CCc1cccc2c(/C=N/NC(=O)c3cccc(S(=O)(=O)Nc4ccccc4Cl)c3)c[nH]c12	15
CCOC(=O)Cc1csc(NC(=S)NC(=O)c2ccccc2Br)n1	7
C=C(C)Cn1c(SCC(=O)N/N=C/c2ccccc2OCC(=O)O)nnc1-c1ccc(Br)cc1	18
Cc1ccn2c(NC(C)(C)C)c(-c3cccs3)nc2c1	12
Cc1ccn2c(C(=O)NN=C3CCCCCCC3)c(C)nc2c1	-14
COc1ccccc1CC(=O)Nc1cccc(C(=O)Nc2nccs2)c1	14
NNC(=O)c1ccc(Oc2cc(Cl)cc(Cl)c2)o1	0
CC1=CC(C)(C)Nc2ccc(Cc3ccc4c(c3)C(C)=CC(C)(C)N4)cc21	16
COc1ccc(NC(=O)C2C3C=CC(C3)C2C(=O)O)cc1 (stereo not drawn)	22
CCN(CC)S(=O)(=O)c1ccc(N(C)C)c(NC(=O)C2CCCC2)c1	21
CC(C)C[C@H](NC(=O)N1CCCCCC1)C(=O)O	24
Cc1nnsc1-c1nnc(SCC(=O)c2ccc(F)cc2)n1C1CC1	17
O=C(O)C1(P(=O)(c2ccc(Cl)cc2)c2ccc(Cl)cc2)CC1	4
Cc1csc(NC(=O)c2cn3ccccc3n2)n1	13
CC(=O)NS(=O)(=O)c1ccc(N=c2ssc3c2-c2cc(C)c(C)cc2NC3(C)C)cc1	16
C/C(=N\NC(=O)CSCc1ccc([N+](=O)[O-])cc1)c1ccccc1O	13
C=CCOc1ccc(CNc2ccc3[nH]c(=O)[nH]c3c2)cc1	-4
CC(C)c1ccc(CC(NC(=O)c2ccccc2)C(=O)NCC(=O)O)cc1 (stereo not drawn)	6
Cc1nn(Cc2ccccc2)c(Cl)c1/C=C/C(=O)OC(C(=O)NC(N)=O)C(C)C (stereo not drawn)	11
CC(=O)Nc1cccc(NC(=O)CSc2nc3ccccc3o2)c1	9
Cc1[nH]nc2c1C(c1cnn(C)c1)C(C#N)=C(N)O2 (stereo not drawn)	25
O=Cc1cn(CCC(=O)O)nc1-c1cccc2ccccc12	-2

Grouped by structure: the compounds so far with an aryl thioether with sulfur outside any ring.
canonical_smiles	Biofilm kill mix
C=C(C)Cn1c(SCC(=O)N/N=C/c2ccccc2OCC(=O)O)nnc1-c1ccc(Br)cc1	18
Cc1nnsc1-c1nnc(SCC(=O)c2ccc(F)cc2)n1C1CC1	17
CC(=O)Nc1cccc(NC(=O)CSc2nc3ccccc3o2)c1	9

(continued)
canonical_smiles	Biofilm kill mix
Oc1ccc(N=Cc2sc3ccccc3c2Cl)cc1	2
CCCCn1c(=N)n(CCOc2ccc(C)cc2)c2ccccc21	20
COc1ccc(NC(=O)c2ccc3ccccc3n2)cc1S(=O)(=O)Nc1ccccc1Cl	11
CC1=CC(C)C(COC(=O)CN2CCCCC2)C(C)C1 (stereo not drawn)	14
CN1CCc2nc3sc(C(=O)NCc4ccccc4)c(N)c3cc2C1	19
CCn1c(-c2sc(-c3ccccc3)nc2C)n[nH]c1=S	17
CCn1c(SCC(=O)Nc2ccccc2)nnc1C1CCCCC1	18
COc1cccc(CNc2ncn[nH]2)c1OCc1ccc(F)cc1	9
Cc1ccc(OCC(=O)NC(=S)Nc2cccc(NC(=O)c3ccccc3)c2)cc1	3
CC(C)N(C(=S)Nc1cc(S(=O)(=O)N2CCOCC2)ccc1Cl)c1ccccc1	10
CCc1nnc(NC(=O)c2ccc3c(c2)C(=O)N(CC(C)C)C3=O)s1	12
Cc1cc[n+]2cc(-c3cccc([N+](=O)[O-])c3)c(-c3cccc([N+](=O)[O-])c3)cc2c1	6

The last 6 compounds of the section before lead into the next.
canonical_smiles	Biofilm kill mix
CCn1c(SCC(=O)Nc2ccccc2)nnc1C1CCCCC1	18
COc1cccc(CNc2ncn[nH]2)c1OCc1ccc(F)cc1	9
Cc1ccc(OCC(=O)NC(=S)Nc2cccc(NC(=O)c3ccccc3)c2)cc1	3
CC(C)N(C(=S)Nc1cc(S(=O)(=O)N2CCOCC2)ccc1Cl)c1ccccc1	10
CCc1nnc(NC(=O)c2ccc3c(c2)C(=O)N(CC(C)C)C3=O)s1	12
Cc1cc[n+]2cc(-c3cccc([N+](=O)[O-])c3)c(-c3cccc([N+](=O)[O-])c3)cc2c1	6
Cc1cc(C)c(C(=O)COC(=O)c2cccc(S(=O)(=O)NCc3ccccc3)c2)cc1C	24
Cc1ccc2cc(C#N)c(NCc3ccccc3)nc2c1	17
Cc1ccccc1NC(=O)CSc1nc2ccccc2c2nc(CCn3cncc3C)nn12	13
COc1cccc(-c2nn(-c3ccccc3)cc2CN(C)Cc2ccon2)c1	11
Oc1[nH]c2ccc(Br)cc2c1N=Nc1nn[nH]n1	3
CCCN(CCC)c1ccc(C(O)c2nnc(-c3ccccc3)o2)cc1 (stereo not drawn)	14
CCOC(=O)c1ccc(NC(=S)N(CCCN2CCN(CC)CC2)Cc2cccs2)cc1	14
CC(C)C(C(=O)OCC(=O)c1ccccc1)N1C(=O)C2C3C=CC(C3)C2C1=O (stereo not drawn)	18
CCCCc1ccc(-c2csc(/C(C#N)=C\c3ccco3)n2)cc1	16
Cc1c(O)ccc(NS(=O)(=O)c2ccccc2)c1C	8
Cc1cc(C(F)(F)F)nn1Cc1n[nH]c(=S)n1-c1ccc(F)cc1	8
O=c1[nH]nc(-c2ccc(F)cc2)cc1Cc1ccc(F)cc1	10
CNCC(O)Cn1c2c(c3ccccc31)CCCC2 (stereo not drawn)	15
O=C1OCC2=C1C(c1ccc(F)cc1)CC(=O)N2c1ccc(F)cc1 (stereo not drawn)	7
N#Cc1c(NC(=O)c2cnccn2)sc2c1CCCC2	5
Cc1ccc(Cn2c(=N)n(CC(=O)c3ccc([N+](=O)[O-])cc3)c3ccccc32)cc1	15
Fc1ccc(C2CCCN2Cc2nc(Cc3ccccc3)no2)cc1 (stereo not drawn)	19
O=S(=O)(Nc1nc2ccccc2nc1Nc1ccc2c(c1)OCO2)c1ccc(F)cc1	25
O=C(Oc1ccc2c3c(c(=O)oc2c1)CCCC3)c1cccs1	8
CCC(C)NC(=O)Cc1c(OC)ccc2cc(Br)ccc12 (stereo not drawn)	10
COc1ccc(C(=O)Oc2ccc(C(=S)N3CCCC3)cc2)cc1OC	9
Cn1c(SCC(=O)N2CCCC2=O)nnc1-c1ccccc1F	11
COc1ccccc1-c1ccc(NC2CCCC2)nn1	12
Cn1cnnc1Sc1ccc(/C=C(\CCC(=O)O)c2nc3ccccc3s2)cc1[N+](=O)[O-]	5
CCOC(=O)c1cccc(NC(=S)NCc2ccc(C)cc2)c1	11
Cc1ncc(/C=C2\C(=O)Nc3ccccc32)[nH]1	12
NS(=O)(=O)c1ccc(NC(=O)COC(=O)c2ccc([N+](=O)[O-])s2)cc1	13
CCn1c(SCC(=O)Nc2cc(C)on2)nnc1-c1c[nH]c2ccccc12	9
Cc1[nH]n(C(N)=S)c(=O)c1N=Nc1ccc2ccccc2c1	7
COC(=O)Cn1cc(/C=C/[N+](=O)[O-])c2ccccc21	10
Cc1ccccc1OCCC(=O)Nc1cccc(S(=O)(=O)Nc2ccccc2Cl)c1	19
COc1ccc(-c2nsc(SCC(=O)Nc3ccc4c(c3)OCO4)n2)cc1	0
FC(F)(F)c1nc2cc3nc4ccccc4[nH]c3cc2n1	22
O=C(CN1CCCCCC1)N1c2ccccc2Sc2ccccc21	9
CC(C)CC(COCc1cccc(Cl)c1)N1CCN(C(=O)c2cccc(C(F)(F)F)c2)CCC1=O (stereo not drawn)	15
CCCCOP(=O)(OCCCC)C(O)c1ccc(F)cc1 (stereo not drawn)	27
Cc1noc(NC(=O)c2ccccc2C(F)(F)F)c1C#N	16
Cc1ccc(NC(/C=C/N(C)C)=C/C(=O)C(F)(F)F)c(C)c1	6
Cc1cc(C)c2nc(-c3ccco3)cc(C(=O)O)c2c1	22
O=C1N=C(N2CCOCC2)S/C1=C/c1ccc(-c2ccc(F)cc2)o1	21
CCOc1ccc(C(c2c(C)[nH][nH]c2=O)c2c(C)[nH][nH]c2=O)cc1OCC	10
Cc1cccc(NC(=O)c2ccc(N3CCOCC3)c([N+](=O)[O-])c2)n1	26
CCOC(=O)C1=C(C)N=C2SC(C(=O)OC)=CC(=O)N2C1c1cc(OC)c(OC)c(OC)c1 (stereo not drawn)	1
C=CCOc1ccc(/C=N/Nc2ccccn2)cc1OC	13
CSc1nnc(-c2cccn(Cc3cccc(Cl)c3)c2=O)o1	17
Cc1ccccc1CC(=O)c1ccc(O)c(C)c1O	15
CC(C)n1c(NCc2ccc(N(C)C)cc2)nc2ccccc21	10
O=C(NCCCn1ccnc1)/C(=C\c1cccnc1)NC(=O)c1ccccc1F	5
Cc1nc(SC(C(=O)c2ccccc2)c2ccccc2)nc2ccccc12 (stereo not drawn)	4
CCCN(CCC)C(=O)C1CC(=O)OC12CCCCC2 (stereo not drawn)	3
CCc1cccc(C)c1NC(=S)N(CCCN1CCOCC1)Cc1cccnc1	2
CCN(CC)CCNC(=O)c1ccc(NC(=O)COc2ccccc2F)cc1	8
CC(C)CC(=O)NC(=S)N(Cc1ccccc1)Cc1ccccc1	22
O=C(CSc1ncn(-c2ccccc2)n1)Nc1nncs1	14
c1ccc(Nc2nc3ccccc3n3nnnc23)cc1	13
Cc1c(C(=O)Nc2ccccc2)sc2nc3n(c(=O)c12)CCCCC3	5
O=C(Oc1ccc(C(=S)N2CCCCC2)cc1)c1ccccc1F	18
CCCCOc1ccc(N=Nc2ccc(N)nc2N)cn1	24
Cn1c(SCC(=O)c2ccccc2)nnc1-c1cccs1	15
CC(NC(=O)Cn1cccc1C(=O)c1ccccc1)c1ccc2c(c1)OCCO2 (stereo not drawn)	-6

(next part)
canonical_smiles	Biofilm kill mix
O=C(Cc1ccccc1)Nc1ccc(NC(=O)c2cccs2)cc1	14
Cc1nnsc1-c1onc(C)c1C(=O)O/N=C/c1ccc(Cl)cc1	16
O=C(NC1CCCCC1)[C@H](CSCc1ccccc1)N1Cc2ccccc2C1=O	2
CC(C)(C)c1nnc(NC(=O)CS(=O)(=O)Cc2ccccc2)s1	22
CC(=O)Nc1ccc(S(=O)(=O)NCC(=O)NC(C)c2ccc(S(N)(=O)=O)cc2)cc1 (stereo not drawn)	22
C/C(=N\NC(=O)c1cccs1)C(C)(C)C	-9
O=[N+]([O-])c1ccccc1OCCOc1ccccc1[N+](=O)[O-]	13
NC(N)=NC(=S)Nc1ccc(Cl)cc1	29
O=C(NCC1CCCO1)Nc1ccc2c(c1)OCO2 (stereo not drawn)	-3
CN(C)/C=N/c1nc2nccc(-c3ccccn3)n2n1	8
Cc1ccc(S(=O)(=O)N/N=C/c2ccccc2O)cc1[N+](=O)[O-]	1
CC1(C)C2C/C(=N\O)C(C)(/[N+]([O-])=C/c3cccc([N+](=O)[O-])c3)CC21 (stereo not drawn)	-23

Quoted from the listing.
Entry for Cc1ccc(S(=O)(=O)N/N=C/c2ccccc2O)cc1[N+](=O)[O-] under Biofilm kill mix: 1
Entry for O=C(NC1CCCCC1)[C@H](CSCc1ccccc1)N1Cc2ccccc2C1=O under Biofilm kill mix: 2

The list continues:
canonical_smiles	Biofilm kill mix
COc1ccc(CCNC(=O)CN2CCOc3ccccc32)cc1OC	6
CCN(Cc1cnn(C)c1)C(=O)c1cc(COc2ccc(F)cc2F)on1	6
Oc1ccc(Cc2ncc(C(F)(F)F)cc2Cl)cc1	23
CCOC(=O)c1c(NC(=S)NC(C)=O)sc(C)c1C	9
CC1CC2=C(C(=O)O1)C(c1ccc(Cl)cc1)Nc1ccccc1N2 (stereo not drawn)	19
CCOC(=O)C1(CC2CC2)CCN(Cc2ccc(OC)cc2F)CC1	-6
CC(Sc1nncn1C)C(=O)Nc1ccc(Cl)cn1 (stereo not drawn)	9
O=C(Nc1ncccn1)c1cc(-c2ccc(F)cc2)nc2ccccc12	12
C=CCn1c(C2CCCCC2)n[nH]c1=S	10
O=C(Cc1ccc(-n2c(=O)c3ccccc3n(CC(=O)Nc3ccc(F)cc3F)c2=O)cc1)NCc1ccco1	7
COc1ccc(OCC(O)Cn2c(Nc3cccc(C)c3)nc3c2c(=O)n(C)c(=O)n3C)cc1 (stereo not drawn)	6
COc1ccc(N2CCN(c3ccc([N+](=O)[O-])cc3Cl)CC2)cc1	13
CCN(CC)S(=O)(=O)c1cccc(C(=O)N/N=C/c2cc(OC)c(O)c(OC)c2)c1	13
O=C(CCOc1ccccc1)Nc1cccc([N+](=O)[O-])c1	11
CCOc1cc(/C=N\Nc2nc(-c3ccc(C)cc3)c(NC(C)=O)s2)ccc1O	21
CCC(C)(C(=O)NC1CCCCC1)N(C(=O)CNC(=O)c1ccccc1)c1c(C)n(C)n(-c2ccccc2)c1=O (stereo not drawn)	4
O=C(CN1C(=O)c2ccccc2C1=O)Nc1cccc(S(=O)(=O)Nc2ccccc2Cl)c1	11
Cc1ccc(C(=O)N/N=C\c2c(C)nn(-c3ccccc3)c2Cl)cn1	14
CC1Sc2ccc(Cl)cc2-c2nc(N)ncc21 (stereo not drawn)	20
COc1cccc(-n2c(-c3ccco3)nc3nc4ccccc4nc32)c1	7
COC(=O)c1nnn(-c2ccc(Cl)c(Cl)c2)c1C(=O)OC	10
c1ccc(CSc2ncnc3c2cnn3-c2ccccc2)cc1	17
CSC1=NCCN1S(=O)(=O)c1ccc(F)cc1	13
